KCNQ2 enhance – enhances the rat KCNQ2 potassium channel. CHO-K1 KCNQ2, FluxOR thallium flux fluorescence; active compounds read high. O88943. AID 2239. B-score at 10 µM. 0.54% of 310,000 active;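 active = fluorescence ratio B-score at least 3 SD of library B-scores, with initial fluorescence B-score within 3 SD, cut at about 5.3 in these data; same plate scores as AID 2156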;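 also: B-score of peak minus minimum over baseline fluorescence ratio after K+ and Tl+ stimulus; positive B-score means potentiation of KCNQ2 with more thallium influx and brighter signal; only the inactives scoring about 0 or higher are listed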
Target sequence (O88943 whole entry, looked up): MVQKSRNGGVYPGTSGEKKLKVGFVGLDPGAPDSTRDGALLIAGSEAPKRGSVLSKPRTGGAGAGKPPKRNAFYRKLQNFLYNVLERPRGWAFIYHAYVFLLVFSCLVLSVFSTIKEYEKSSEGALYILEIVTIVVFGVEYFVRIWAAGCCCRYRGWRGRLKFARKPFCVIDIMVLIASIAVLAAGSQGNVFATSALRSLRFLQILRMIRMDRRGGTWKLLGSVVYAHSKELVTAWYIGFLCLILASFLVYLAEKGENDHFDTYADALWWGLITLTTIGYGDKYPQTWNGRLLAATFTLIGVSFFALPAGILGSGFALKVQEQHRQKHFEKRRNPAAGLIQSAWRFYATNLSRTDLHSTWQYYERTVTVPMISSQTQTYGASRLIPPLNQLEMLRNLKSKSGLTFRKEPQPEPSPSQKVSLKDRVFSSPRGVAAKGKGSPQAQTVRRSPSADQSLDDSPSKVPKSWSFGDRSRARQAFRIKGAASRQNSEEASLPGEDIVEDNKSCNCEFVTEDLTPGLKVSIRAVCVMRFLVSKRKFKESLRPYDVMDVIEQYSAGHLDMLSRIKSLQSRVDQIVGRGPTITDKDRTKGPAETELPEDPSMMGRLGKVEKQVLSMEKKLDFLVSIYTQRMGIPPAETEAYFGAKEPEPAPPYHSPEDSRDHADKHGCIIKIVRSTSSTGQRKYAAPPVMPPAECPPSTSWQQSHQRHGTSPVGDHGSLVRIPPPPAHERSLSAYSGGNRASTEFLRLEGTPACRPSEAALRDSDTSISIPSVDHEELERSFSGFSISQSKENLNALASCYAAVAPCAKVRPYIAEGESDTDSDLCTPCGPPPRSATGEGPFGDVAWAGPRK
KCNQ2 enhance baseline – further read-out of KCNQ2 enhance, marked with its call; B-score; compound at 10 µM; measured here: initial fluorescence intensity artifact check;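 brightness before thallium and not channel activity; 0 = typical well and far values either way flag optical interference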
Active calls of the source: *. These rows are one share of the data. The share of hits here may be higher or lower than overall.

SMILES	KCNQ2 enhance baseline	KCNQ2 enhance
COc1ccc(-c2noc(CNC(=O)CCCN3C(=O)[C@H]4CC=CC[C@H]4C3=O)n2)cc1	-2.6	0.67
COc1ccc(CNC(=O)C(C)NC(=O)c2cc3ccccc3o2)cc1 (stereo not given)	-1.5	2.9
O=C(NC1CC1)C1=C[C@H](C2CC2)C[C@H](OCCCCO)O1	-0.22	1.4
CC(=O)c1cc(NC(=O)c2cccc(C(F)(F)F)c2)c(=O)oc1C	0.08	3.9
CCCSc1nc(C)c(CC(=O)OCC)c(=O)[nH]1	0.54	0.55
CC(=O)Nc1ccc(Nc2nc3ccccc3n3cnnc23)cc1	-2	3.3
CCc1ccc2oc(-c3ccc(N)cc3)nc2c1	-0.2	1.7
COC(=O)c1c(NC(=O)CCCC(=O)O)sc2c1CCCCC2	-0.33	1.2

Structures listed so far containing sulfur (two):
SMILES	KCNQ2 enhance baseline	KCNQ2 enhance
CCCSc1nc(C)c(CC(=O)OCC)c(=O)[nH]1	0.54	0.55
COC(=O)c1c(NC(=O)CCCC(=O)O)sc2c1CCCCC2	-0.33	1.2

(list continues)
SMILES	KCNQ2 enhance baseline	KCNQ2 enhance
Cc1nc(-c2ccccn2)nc(N2CCOCC2)c1Cl	-0.1	3.6
O=C1CSC(c2ccncc2)N1Cc1ccccc1 (stereo not given)	0.03	1.2
CC(=O)NC1Sc2ccccc2N=C1c1ccccc1 (stereo not given)	-3	0.45
Cn1c(N)c(C(=O)COC(=O)CCCOc2ccc(Cl)cc2Cl)c(=O)n(C)c1=O	2	2.8
CC(NC(=S)Nc1ccc(F)cc1)C(c1cccs1)N1CCOCC1 (stereo not given)	2	0.23
CCCC(=O)N(CCN1CCOCC1)c1nc2c(F)cc(F)cc2s1	-0.32	1.4
CCOc1ccccc1CNC(=O)c1cc2oc3ccccc3c2n1C	-0.33	0.88
Cc1ccc(C(=O)NC(C)c2ccc(-n3ccnc3)cc2)c(C)c1 (stereo not given)	0.11	0.16

(listing goes on)
SMILES	KCNQ2 enhance baseline	KCNQ2 enhance
O=C(NCc1ccc(Cl)cc1)C(=O)NCC(c1cccnc1)N1CCN(c2ccc(F)cc2)CC1 (stereo not given)	-2.5	0.63
COc1c2ccoc2cc2oc(C)cc(=O)c12	0.02	1.8
C=CCn1c(SCC(=O)N2CCOCC2)nc(O)cc1=O	4.2	1.7
COc1ccc2c(c1)[N+](C)(C)C(C)(C)C=C2C	1.5	0.22
Nn1c(Cc2ccccc2F)nnc1SCC(=O)N1CC(=O)Nc2ccccc21	-0.94	0.33
COc1ccc(NC(=O)CN(C)C(=O)CNC(=O)Cc2cccc3ccccc23)cc1	-0.01	1.2
CCc1ccccc1NC(=O)c1ccc(NCCc2ccccc2)c([N+](=O)[O-])c1	-0.04	1.6
Cc1c(C#N)c(=O)oc2ccc3ccccc3c12	1.2	0.57

(listing goes on)
SMILES	KCNQ2 enhance baseline	KCNQ2 enhance
COC(=O)c1c(C(=O)OC)c2cccc3cc(-c4ccccc4)c4ccc1c4n32	-1.2	0.58
O=C(CC(=O)N/N=C/c1c(Cl)cccc1Cl)NCc1cccnc1	0.43	2
CCOC(=O)C1=C(O)CSC1=Nc1ccccc1	0.49	0.75
CC(=O)Nc1ccc(C(=O)CSc2nnnn2C)cc1	0.42	0.99
COc1ccccc1C(=O)NC(=S)Nc1ccc(N2CCOCC2)c(Cl)c1	-0.67	0.48
C=CCNC(=O)c1ccc(Sc2ccccc2)c([N+](=O)[O-])c1	0.35	0.85
CC(C)c1ccc(C(=O)NNC(=O)C2C3CCC(C3)C2C(=O)O)cc1 (stereo not given)	0.07	0.01
Cc1nc2scc(C)n2c(=O)c1S(=O)(=O)Nc1ccc(N2CCN(C(=O)C(C)C)CC2)cc1	0.06	0.16

Next results follow:
SMILES	KCNQ2 enhance baseline	KCNQ2 enhance
Cc1cccc(OCCSc2nc3c([nH]2)c(=N)ncn3Cc2ccccc2)c1	-0.33	0.22
CC(=O)CC(=O)Nc1ncccn1	-0.07	1.6
CCC(C)Nc1cc(C)nc2ncnn12 (stereo not given)	-0.33	2.5
CCCCCCC(=O)Nc1c2c(nc3ccccc13)N(C)CC2	-0.01	1.4
Cc1ccc2nc(SCC(=O)NC3CCCCC3)nc(=O)n2c1	3.1	0.1
CC(OC(=O)CCCc1nc2ccccc2s1)C(N)=O (stereo not given)	2	0.45
CC(=O)Nc1ccc(C(=O)NCCCOC(C)C)cc1	-2	0.99
CCN(CC)C(=O)Cn1cc(S(=O)(=O)CC(=O)Nc2ccccc2C)c2ccccc21	0.42	0.06

Complete entries, quoted from the list. Order of values: KCNQ2 enhance baseline | KCNQ2 enhance
`CCc1ccc2oc(-c3ccc(N)cc3)nc2c1` as listed: -0.2 | 1.7
`CCc1ccccc1NC(=O)c1ccc(NCCc2ccccc2)c([N+](=O)[O-])c1` as listed: -0.04 | 1.6
`O=C(NCc1ccc(Cl)cc1)C(=O)NCC(c1cccnc1)N1CCN(c2ccc(F)cc2)CC1` (stereo not given) as listed: -2.5 | 0.63
`O=C(NC1CC1)C1=C[C@H](C2CC2)C[C@H](OCCCCO)O1` as listed: -0.22 | 1.4

Additional entries
SMILES	KCNQ2 enhance baseline	KCNQ2 enhance
O=c1cc(CCl)nc(Cc2c(Cl)cccc2Cl)[nH]1	1	0.2
CC(C)(C)Sc1ccccc1S(=O)(=O)C(C)(C)C	0.3	0.02
CN1C(=O)/C(=C/c2ccc(OCc3ccccc3F)cc2)NC1=S	1.1	0.01
Cc1nc(C)c(C(=O)N2CCCC(C(=O)c3cc(F)ccc3F)C2)s1 (stereo not given)	0.48	1.4
COc1ccc(S(=O)(=O)N2CCC(C(=O)Nc3cc(Cl)ccc3N3CCOCC3)CC2)cc1OC	0.09	0.4
Fc1ccc(-n2cc(-c3ccccc3)c3c(=S)nc[nH]c32)cc1	3.1*	6.4*
Oc1[nH]c2ccccc2c1C=Nc1ccccc1	0.17	0.05
O=C(COc1ccc(F)cc1)Nc1c(C(=O)N2CCC(N3CCCCC3)CC2)oc2ccccc12	-1.1	0.75

(cont.)
SMILES	KCNQ2 enhance baseline	KCNQ2 enhance
CCCn1c(N)c(N(CCOC)C(=O)c2ccccc2)c(=O)[nH]c1=O	-0.54	0.45
CC(C)c1ccc(/C=N/N2CCCCC2)cc1	0.03	1.4
Clc1ccccc1OCCCCn1ccnc1	2.3	0.02
Cc1cc(C(=O)O/N=C(\N)c2ccc(C(C)(C)C)cc2)no1	0.52	0.93
COc1ccc(CN2CCNC(=O)C2CC(=O)N(C)Cc2ccon2)c(OC)c1 (stereo not given)	0.27	0.14
COC(=O)c1ccc(C(=O)OC)c(NC(=O)CSc2ccccn2)c1	-1.5	2.5
O=C(Nc1ccc(Br)cc1)c1ccc(-n2cnnn2)cc1	-1.6	0.26
O=S(=O)(Nc1ccc2c(c1)OCCO2)c1cccc(F)c1	0.49	0.02

Going on with the list.
SMILES	KCNQ2 enhance baseline	KCNQ2 enhance
CC(C)(C)c1cc(NC(=O)Nc2ccc(Cl)cc2Cl)no1	0.5	0.68
CC(=O)[C@@H]1[C@@H](C)N(Cc2ccccc2)C(=O)N[C@H]1c1ccccc1	1.8	0.77
O=C(CSc1nnc2c(Cl)cc(Cl)cn12)N1CCN(S(=O)(=O)c2ccccc2)CC1	0.26	1.2
COc1ccc(CCN2CC(C(=O)Nc3ccccc3F)CC2=O)cc1OC (stereo not given)	-1.3	1.2
Cn1c(-c2ccc(Cl)cc2)cnc1N	-0.04	1.1
C=CCN(C(=O)CNC(=O)c1cccs1)C(C(=O)NC1CCCCC1)c1cccnc1 (stereo not given)	1.5	0.29
Cc1ccc(S(=O)(=O)N2CCC(C(=O)OC(C)C(=O)NCc3ccc4c(c3)OCO4)CC2)cc1 (stereo not given)	-0.01	0.14
Cc1onc(-c2c(F)cccc2Cl)c1C(=O)N1C=CC(C(F)(F)Cl)=NCC1	-0.44	0.66

Next section
SMILES	KCNQ2 enhance baseline	KCNQ2 enhance
CN(C)S(=O)(=O)c1cccc(NC(=O)c2ccncc2)c1	-0.17	0.67
CC(C)CNC(=O)C1C2C=CC(C2)C1C(=O)O (stereo not given)	-0.09	0.32
CCNC(=O)CC1C(=O)N(c2ccc(F)cc2)C(=O)N1CCC(C)C (stereo not given)	-2	0.9
Cc1ccc(-n2[nH]c(C)c(/C=N/n3c(C)nc4ccccc4c3=O)c2=O)cc1	1.2	1.8
CCn1c(SCC(=O)N/N=C/c2ccccc2OCC(=O)O)nnc1-c1ccc(C(C)(C)C)cc1	-0.01	0.84
CCC(=O)N1N=C(c2ccc(C)cc2)CC1c1ccco1 (stereo not given)	0.16	0.22
COc1ccc(OC)c(NC(=O)CC2SC(=NCc3ccccc3)NC2=O)c1 (stereo not given)	0.08	0.25
CC(=O)Nc1ccccc1C(=O)C(=O)Nc1ccc(C)c(C)c1	-0.6	0.39

(further entries)
SMILES	KCNQ2 enhance baseline	KCNQ2 enhance
COc1ccc(N2C(=O)C3CCCN3C2c2ccccc2OC)cc1 (stereo not given)	1.9	0.16
CN1CC(=O)N(CC(=O)Nc2ccc(Br)cc2F)C1=O	-0.05	0.72
COCCNC(=O)C(c1ccc(C)o1)N(C(=O)c1snc(C(N)=O)c1N)c1ccc(C)cc1 (stereo not given)	-0.49	0.06
CCC(=O)Nc1ccc2c(c1)Cc1cc(NC(=O)CC)ccc1-2	-1.1	0.45
Cc1ccc2[nH]c(=O)c3cc(C(=O)N4CCN(C(=O)c5ccco5)CC4)sc3c2c1	-0.55	2.3
CC(=O)c1ccc(NC(=O)Cn2nc(C)c([N+](=O)[O-])c2C)cc1	0.1	0.01
COc1ccc(C2/C(=C(/O)c3ccc(C)cc3)C(=O)C(=O)N2c2ccccn2)cc1 (stereo not given)	-0.85	0.25
Cc1cc(C)nc(N(C#N)Cc2ccccc2)n1	-1.1	1.1

(more compounds)
SMILES	KCNQ2 enhance baseline	KCNQ2 enhance
CNC(=O)c1sc2nc(-c3ccc(OC)cc3)cn2c1C	-0.53	0.52
CN(C)CCCNC(=S)NCc1ccc(Cl)cc1	-0.76	0.57
Cc1cccc(S(=O)(=O)Nc2nc3ccccc3nc2Nc2ccc3c(c2)OCO3)c1	-1.6	0.66
Cc1cccc(NC(=S)NCc2cccs2)c1	-0.11	0.99
O=C(COC(=O)c1ccc(Cl)c(S(=O)(=O)NCc2ccccc2)c1)NCC1CCCO1 (stereo not given)	0.27	0.85
Cc1ccc(C(=O)N/N=C\c2ccc[nH]2)cc1[N+](=O)[O-]	0.15	0.49
CCCCOc1ccc(Br)cc1CSC(=N)N	1.2	0.15
O=C(Cn1cnc2sc(-c3ccccc3)cc2c1=O)N1CCOCC1	0.43	0.03

The list continues:
SMILES	KCNQ2 enhance baseline	KCNQ2 enhance
CC(C(=O)OCC(=O)c1cccc([N+](=O)[O-])c1)N1C(=O)C2C3CCC(C3)C2C1=O (stereo not given)	1.8	0.02
COc1ccccc1-n1ccnc(SCC(=O)NCCc2ccccc2)c1=O	0.12	0.08
CC1CCN(C(=O)CSc2nnc(-c3cccnc3)o2)CC1	0.94	0.39
Cn1nnnc1SCC(=O)NNC(=O)c1ccc(F)cc1	0.77	1.4
Cc1cc(C(=O)CN2C(=O)CCC2=O)c(C)n1Cc1ccccc1	-0.01	1.1
CCCCCc1nc2sc3c(c2c(=O)n1N)CCC3	-0.29	3.4
CC1(c2ccc(OC(F)F)cc2)NC(=O)N(CC(=O)Nc2ccc3c(c2)OCO3)C1=O (stereo not given)	0	1.1
Cn1c(CNC(=O)c2ccccc2F)nnc1SCc1nc2ccccc2c(=O)[nH]1	0.35	1.2

The list continues.
SMILES	KCNQ2 enhance baseline	KCNQ2 enhance
Cn1c(=O)[nH]c2ncccc21	-1.7	1.8
C=C(C)C1CC=C(C)/C(=N/NC(=S)Nc2ccccc2)C1 (stereo not given)	0.13	1.8
S=c1nc2ccccc2c2nc(-c3ccccc3)[nH]n12	2.1	1.1
Cc1cc(C(=O)Nc2ccc(F)cc2C)cs1	0.86	0.05
O=C(c1ccc2ccccc2n1)N1CCN(c2ccccc2)CC1	-0.11	2.3
O=C1CCCC2=C1C(c1ccc(Br)cc1)c1c([nH]c(=S)[nH]c1=O)N2 (stereo not given)	0.16	1.5
CC(=O)Nc1ccc(S(=O)(=O)NCCc2ccccn2)cc1	0.34	0.67
Cc1ccc2nc3ccc(N4CCN(C)CC4)nn3c(=O)c2c1	-0.05	0.45

More results follow:
SMILES	KCNQ2 enhance baseline	KCNQ2 enhance
CCn1c(O)c(C=C2N=c3ccccc3=N2)sc1=S	-1.1	1
CSC1=NCCN1C(=O)c1ccc2c(c1)OCO2	-1.4	1.8
CC1CCN(C2=NC(=O)/C(=C/c3cccc(O)c3)S2)CC1	0.14	2.1
COc1ccc(-c2nnc(NC(=O)c3ccc(S(=O)(=O)N(C)CC4CCCO4)cc3)o2)c(OC)c1 (stereo not given)	-0.75	0.01
O=C(N/N=C/c1ccc(F)cc1)c1ccc(OCc2ccccc2)cc1	0.29	0.75
Cc1cc(C)cc(NC(=O)CN2C(=O)c3ccccc3C2=O)c1	-0.02	0.64
O=C(c1nc2ccccn2c1CN1CCCC(c2nc3ccccc3o2)C1)N1CCCC1 (stereo not given)	0.11	1
COCCN(C(=O)CSc1nnc(-c2ccc(C)cc2)n1N)c1c(N)n(Cc2ccccc2)c(=O)[nH]c1=O	3.2	0.01

(more compounds)
SMILES	KCNQ2 enhance baseline	KCNQ2 enhance
O=C(CSc1nnc(NC(=O)c2ccccc2F)s1)NCc1ccco1	-0.79	0.78
COc1ccc(CCN2C(=O)C(O)=C(C(C)=O)C2c2ccccc2OC)cc1OC (stereo not given)	0	1.3
COc1ccc(C2NCCc3cc(OC)c(OC)cc32)cc1OC (stereo not given)	1.3	1.6
O=C(CN(C(=O)c1ccccc1)N1C(=O)CCC1=O)c1cccs1	0.15	0.37
O=c1onc(-c2ccccc2)n1-c1cc(Cl)cc(Cl)c1	-0.77	1.2
Cc1cccn2cc(CCNC(=O)c3cccs3)nc12	-0.57	2.7
O=C(NC(=S)N1CCN(C/C=C/c2ccccc2)CC1)c1cccnc1	-1.3	0.67
Nc1ccc2nc(-c3cccs3)[nH]c2c1	-0.7	1.2

High-throughput results deposited in PubChem BioAssay by Johns Hopkins Ion Channel Center.
